Screening results: PubChem, several laboratories
ugtP null kill: growth inhibition of ugtP-null S. aureus, primary screen, RN4220 ugtP deletion, OD600. 16 h; some inactives read as strong as hits. growth inhibition, % (test concentration not listed). 330,000 tested, 0.54% active. AID 1259309, 2017;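 active = z-score under -3 and OD600 up to 0.15 on both plates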;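 note: plate controls were untreated wells for no effect and antibiotic for full effect; wells of about 80 µL received 100 nL stock; the first replicate is given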
Sa RN4220 lethal: growth inhibition of S. aureus RN4220, primary screen, OD600; 16 h; 330,000 tested, 0.33% active; inhibition, % (test concentration not listed);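 active = z-score of -3 or lower and OD600 up to 0.18 on both plates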;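 note: plate controls were untreated cells for no effect and reference antibiotic for full effect; stock transfer was 100 nL into about 80 µL; one replicate is shown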
BJeLR viability: MLPCN primary cell-based screen for lethality selective to Ras in HRASV12 cells; inhibition, % (concentration not given with the values); 300,000 tested, 0.17% active; BJeLR (HRASV12) viability, CellTiter-Glo ATP luminescence, 48 h; reference of the scale not given here;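 active = replicate mean above 50%; inconclusive = above 50% but judged a plate artefact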;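 note: 50 nL library stock added to about 25 µL; numbers are from one replicate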
Mtb hypoxia inh: PubChem AID 1159583. fluorescence inhibition, % (no concentration beside the values). 300,000 tested, 0.1% active. M. tuberculosis hypoxia-regulated fluorescent reporter, fluorescence;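 active = 35 to 45% if threefold the growth effect, above 45% if 1.5-fold the growth effect; inactive = the rest, general growth blockers included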;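 note: wells of about 50 µL received 100 nL stock; 0% = vehicle wells and 100% = reference inhibitor wells; whole bacteria with a GFP reporter of the hypoxia response; strong numbers were not always called active; many hits fall short of the cut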
Bead autofluor: counter-screen for toxin protease inhibitors: compound fluorescence | compound autofluorescence counterscreen, microsphere flow cytometry; active compounds read high | fluorescence intensity (test concentration not listed) | 360,000 tested, 3.1% active;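 active = at least 3 SD above the mean of all compounds, about 16000 in these data; inconclusive = too few beads counted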;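 note: 100 nL of 1 mM stock went into each well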
PrP UTR inh: inhibition of PrP 5' UTR reporter expression | 340,000 tested, 0.35% active | AID 488862, 2010 | cell-based PrP 5' UTR mRNA reporter, plate reader | inhibition, % (no concentration beside the values);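 active = every replicate at 50% or more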;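 note: 0 = median of the neutral control wells; tested in H4 reporter cells; numbers are from one replicate; inactives centre near -14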
Mtb hypoxia inh growth: further read-out of Mtb hypoxia inh, marked with its call; growth inhibition, %; measured here: M. tuberculosis growth (absorbance);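 0% = vehicle and 100% = reference antibiotic; read after six days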
An asterisk follows results filed as active; ? = inconclusive; · = not tested or not shown. No enrichment for hits. Share with any hit: about 4%.

Fields – ugtP null kill	Sa RN4220 lethal	BJeLR viability	Mtb hypoxia inh	Mtb hypoxia inh growth	Bead autofluor	PrP UTR inh
> CCCN(CCC)C(=O)CP(=O)(c1ccccc1)c1ccccc1
→ 3	3.2	-1	2	1	11292	-25
> CCOc1ccc(CN(C(=O)c2cc3ccccc3oc2=O)C2CCS(=O)(=O)C2)cc1 (stereo not drawn)
→ 7	3.8	-9	-1	2	4594	-46
> O=S(=O)(c1ccc(F)cc1)N1CCN(CC(O)COCC2CCCO2)CC1 (stereo not drawn)
→ 9	3.4	·	6	2	6439	-18
> CC(C)(C)c1cc(NC(=O)c2ccc(OC3CCCC3)cc2)no1
→ 6	7.1	3	9	1	9834	-58
> CCOC(=O)C(Sc1ncn[nH]1)c1ccccc1 (stereo not drawn)
→ 1	2.8	-3	6	0	?	-18
> CCC(C)/C(C)=N/NC(=O)CSc1nc2ccccc2[nH]1 (stereo not drawn)
→ ·	·	-7	·	·	2536	1
> CC12CN(C(=O)c3ccccc3Br)CC(C)(CN(C(=O)c3ccccc3Br)C1)C2=O
→ 8	5.4	-17	7	10	4044	-8
> COc1cc(-c2ncc3ccccn23)cc(OC)c1OC
→ 11	21	1	-6	-4	3354	-1
> COc1ccc(CC2(CO)CCN(C(=O)NCc3ccccc3)CC2)cc1
→ 0	3.3	2	2	11	4594	-17
> COc1ccc(Nc2nc(Cl)nc(Nc3ccc(OC)cc3OC)n2)c(OC)c1
→ -6	-0.7	0	-13	-5	3250	-9
> Cc1ccccc1OCC(=O)N(Cc1nnc(-c2ccc(Cl)cc2)o1)C(C)C
→ 7	4.3	·	6	6	3931	-6
> CCOC(=O)C1CCN(C(=O)c2oc3ccc4c(c3c2C)C(O)CC2(CCCCC2)O4)CC1 (stereo not drawn)
→ -3	9.4	2	11	-3	5770	-3
> COc1cc2c(c(OC)c1OC)-c1ccc(C(=O)O)cc1C(NC(C)=O)CC2 (stereo not drawn)
→ 0	4.0	·	1	5	·	·
> CCNC(=S)N1CCN(CCN=CC2=C(O)CC(c3cccs3)CC2=O)CC1 (stereo not drawn)
→ 9	6.1	-2	6	-2	12781	-33
> COc1ccc(NC(=O)CSc2nc3c(sc4ccccc43)c(=O)n2CCCN2CCCC2)cc1
→ -3	-1.6	-1	-1	-5	9069	-24

By substructure: those above containing four or more nitrogen atoms (four)
Fields – ugtP null kill	Sa RN4220 lethal	BJeLR viability	Mtb hypoxia inh	Mtb hypoxia inh growth	Bead autofluor	PrP UTR inh
> CCC(C)/C(C)=N/NC(=O)CSc1nc2ccccc2[nH]1 (stereo not drawn)
→ ·	·	-7	·	·	2536	1
> COc1ccc(Nc2nc(Cl)nc(Nc3ccc(OC)cc3OC)n2)c(OC)c1
→ -6	-0.7	0	-13	-5	3250	-9
> CCNC(=S)N1CCN(CCN=CC2=C(O)CC(c3cccs3)CC2=O)CC1 (stereo not drawn)
→ 9	6.1	-2	6	-2	12781	-33
> COc1ccc(NC(=O)CSc2nc3c(sc4ccccc43)c(=O)n2CCCN2CCCC2)cc1
→ -3	-1.6	-1	-1	-5	9069	-24

Later entries.
Fields – ugtP null kill	Sa RN4220 lethal	BJeLR viability	Mtb hypoxia inh	Mtb hypoxia inh growth	Bead autofluor	PrP UTR inh
> C=CCc1c(OC(C)=O)c2ccccc2n(C)c1=O
→ -4	3.7	-3	10	7	2462	-39
> Cc1sc(NC(=O)c2ccco2)c(CN2CCN(Cc3ccccc3)CC2)c1C
→ -2	4.8	-3	-1	4	5044	-28
> CCOc1ncccc1C(=O)N(CC)CC(=O)NCc1ccc(F)cc1
→ 10	0.6	-15	3	-2	6303	-15
> Cc1ccc(-n2c(SCC(=O)N3CCCCC3)nc(O)c(Cc3ccccc3)c2=O)cc1
→ 0	1.0	3	5	-2	5096	-16
> CC(C)Cc1nn2c(=O)cc(CSCC(=O)Nc3ccccc3F)nc2s1
→ 3	0.0	-14	-2	6	5248	-22
> CCCC(=O)Nc1cc(-c2cn3cccnc3n2)ccc1OC
→ -5	6.3	0	1	5	18918*	-10
> C#CCSc1nnc(-c2ccc(O)cc2)o1
→ ·	·	-2	·	·	4879	-51
> CSc1ncc(CN2CCN(CCC(C)C)C(CCO)C2)cn1 (stereo not drawn)
→ 1	3.7	6	3	6	4077	-24
> CC(C)[C@H]1COCCS(=O)(=O)N1Cc1ccccc1F
→ ·	·	-2	·	·	4053	-9
> CCOc1ccc(N(CC(=O)Nc2cc(OC)cc(OC)c2)S(=O)(=O)c2c(C)[nH]c(=O)[nH]c2=O)cc1
→ 8	2.5	0	-1	1	4375	-22
> COC(=O)C1=C(O)/C(=C\c2ccc(CNS(=O)(=O)c3ccc(Cl)cc3)o2)N=C1C
→ 6	3.3	-3	3	8	1978	-6
> COC(=O)c1ccc(OCc2nn[nH]n2)cc1
→ 5	2.8	1	15	12	4137	-11
> FC(F)Oc1ccc(C2N=C(c3ccccc3)NO2)cc1 (stereo not drawn)
→ ·	·	4	·	·	4408	-20
> CN(C)c1nc(NN=Cc2ccc(Cl)c([N+](=O)[O-])c2)nc(Nc2ccc(F)cc2)n1
→ 40	48	·	7	13	·	·
> COC(=O)c1ccc(NS(=O)(=O)c2cc3c4c(c2)CCC(=O)N4CCC3)cc1
→ 4	13	4	-2	1	?	8
> O=C(NCCCn1ccnc1)c1cc(S(=O)(=O)N2CCOCC2)ccc1F
→ -3	5.1	-5	4	4	2939	-26
> CCOc1cc(C(=O)N2CCC(CC3CC(c4cccc(Br)c4)=NO3)(C(=O)NCC3CCCCC3)CC2)cc(OCC)c1OCC (stereo not drawn)
→ 13	4.3	-7	3	4	3703	3
> COc1cccc(N2CCN(Cc3ccco3)CC2)c1
→ 14	2.4	1	4	5	3374	-18
> COc1ccc(-n2ncc3c(=O)n(CC(C)=O)cnc32)cc1
→ 2	3.1	22	0	3	2086	-19
> CCOC(=O)c1cc(-c2ccc(OC)cc2)n[nH]1
→ 5	7.3	0	-5	-1	5450	-56
> CC(=O)c1cccc(CN2CCN(C3CCCC3)C(CCO)C2)c1 (stereo not drawn)
→ 0	2.3	0	13	13	4424	-17
> CCC(C)NC(=O)C1CCC(CNS(=O)(=O)c2ccc3c(c2)N(C(C)=O)CCO3)CC1 (stereo not drawn)
→ 3	2.0	10	6	5	5540	-16
> CC(C)(C)c1cc(=O)[nH]c(SCc2ccccc2)n1
→ -8	16	·	6	-14	4724	-21
> O=C(NCCC(=O)N(Cc1ccco1)Cc1cccs1)c1ccc([N+](=O)[O-])cc1
→ -1	0.2	·	-6	-4	5282	-2
> CCCCOc1ccc(N2C(=O)CC(N(O)c3ccccc3)C2=O)cc1 (stereo not drawn)
→ -10	4.0	-3	9	12	9002	-45
> O=C(O)C(Oc1ccc(Cl)cc1)c1ccc(Cl)cc1 (stereo not drawn)
→ -5	21	·	19	9	3927	-26
> Nc1nc(N2CCN(c3ccccc3)CC2)n[nH]1
→ 2	6.7	-13	1	2	3555	-19
> Cc1ccc(Nc2c(-c3cccnc3)nc3ccc(Br)cn23)cc1
→ -1	-0.2	-1	1	0	3672	-20
> OCCNCCOCCOc1ccccc1-c1ccccc1
→ ·	·	-5	·	·	2407	-18
> NC(=O)CC[C@H](NC(=O)c1ccc(F)cc1)C(=O)N1CCN(Cc2ccc3c(c2)OCO3)CC1
→ 1	1.5	·	12	2	4010	-18
> CC(CC(=O)O)CC(=O)Nc1cccc([N+](=O)[O-])c1 (stereo not drawn)
→ 5	-0.4	-2	-6	-9	4077	-13
> CCc1c(C)nc2nc(SCc3ccccc3)[nH]n2c1=O
→ 8	5.4	4	4	5	3637	-9
> CC(Oc1ccc(Cl)cc1Cl)C(=O)Nc1cccnc1 (stereo not drawn)
→ -6	6.8	8	4	7	2411	-28
> CCOC(=O)/C(C#N)=C/c1cccc([N+](=O)[O-])c1
→ 4	-0.2	4	9	0	4273	-6
> COc1ccc([C@@H]2C[C@H]3CN(Cc4ccccc4OC)C(=O)[C@]34CCCN24)cc1C
→ 1	5.1	2	1	16	19989*	-18
> CCCCCc1ccc(-c2cn(CCCOCc3ccccc3)nn2)cc1
→ 3	-1.4	-3	-2	-2	3787	0
> O=C(c1ccccc1)n1ccc2ccccc21
→ 2	4.6	0	·	·	5786	-28
> Cc1cc(C)n2nc(SCc3cc(=O)oc4cc(C)c(C)cc34)nc2n1
→ -3	-7.6	-4	-1	5	·	·
> CCCC(=O)Nc1cc2c3c(c1)CC(=O)N3CCC2
→ 2	3.0	-2	6	8	5151	-7
> O=C(Cn1nnc(-c2cc(C(F)(F)F)cc(C(F)(F)F)c2)n1)NNC(=S)Nc1ccc(Cl)cc1
→ 7	11	10	9	9	3663	4
> O=C(c1nc2ccccn2c1CN1CCN(c2ccccc2O)CC1)N1CCCC1
→ 5	1.1	1	1	10	3157	-6
> COc1ccc(N2C(N)=NC(N)=NC23CCCC3)cc1
→ -4	0.2	1	·	·	4975	-24
> O=C(Cn1c(=O)sc2ccccc21)NCc1ccco1
→ 3	2.2	16	·	·	2835	-8
> CCN1C(=O)c2cccc3c(NC(=O)C(C)(C)C)ccc1c23
→ -14	-0.6	-5	·	·	2750	-5
> O=C(c1ccco1)N1N=C(c2ccncc2)CC1(O)C(F)(F)F (stereo not drawn)
→ 1	5.7	3	12	0	3730	1
> Cc1ccc(C(=O)OCC(=O)N2CCc3ccccc32)cc1
→ 10	3.3	3	·	·	4298	-46
> COc1ccc2c(c1)c(=O)oc1c(C)c(OC(C)C(=O)N[C@@H](Cc3c[nH]c4ccc(O)cc34)C(=O)O)ccc12 (stereo partly drawn)
→ 5	1.8	-2	·	·	4053	-51
> CC(CCc1ccccc1)NC(=O)/C=C/c1ccc(Cl)cc1 (stereo not drawn)
→ ·	·	-14	·	·	9548	-21
> COc1ccc(NS(=O)(=O)c2csc(C(=O)N3CCCC3)c2)c(OC)c1
→ 8	2.8	9	0	7	5692	-24
> CS(=O)(=O)N1CCN(c2ccccc2NC(=O)Cc2ccccc2)CC1
→ 2	-0.5	-4	·	·	4191	-14
> CCN(CC)CCNc1nc(-c2ccc(OC(F)F)cc2)c(C)s1
→ 17	-6.1	13	6	17	4697	-22
> COc1ccc(C2N(C(C)=O)CCCN2S(=O)(=O)c2ccc(C)cc2)cc1 (stereo not drawn)
→ -2	-1.6	-5	-12	-2	3601	2
> O=C(NN=Cc1ccc(Cl)s1)c1ccccc1[N+](=O)[O-]
→ -9	-0.2	·	-3	7	·	·
> Cc1sc2nc[nH]c(=S)c2c1-c1ccccc1
→ -2	11	-9	15	2	4398	-12
> O=C1NC2(CCCCCC2)C(=O)N1Cc1ccc(Br)cc1
→ 0	5.0	18	-1	4	5670	13
> O=C1c2ccccc2C(=O)N1CSc1nnc(Nc2ccccc2F)s1
→ 4	14	-1	-2	-3	1989	-11
> CCN(CC(=O)NCc1ccc(F)cc1)S(=O)(=O)c1ccc(C)cc1
→ 7	5.2	0	-2	1	2954	-12
> CCC(C)[C@H](NC(=O)NCc1ccccc1)C(=O)O (stereo partly drawn)
→ 4	3.2	3	10	7	10431	·
> CCOC(=O)Cc1csc(NC(=O)Cc2ccccc2)n1
→ 6	7.5	3	1	7	3204	-19
